Mtb MbtI inh – MbtI salicylate synthase inhibitors, primary screen, biochemical, fluorescence intensity; P9WFX0; purified MbtI enzyme, fluorescence intensity read-out; inhibition, %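 (about 17 µg/mL by stock and volumes)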; 100,000 compounds, 0.89% hits; AID 493033, 2011;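 active means above 50% in both replicates, above 80% if mildly self-fluorescent; inactive means the rest, strongly fluorescent compounds included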;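 further: 0% = mean of negative and 100% = mean of positive controls; one replicate is shown; some compounds called inactive have numbers as strong as hits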
Target sequence (P9WFX0 whole entry, looked up): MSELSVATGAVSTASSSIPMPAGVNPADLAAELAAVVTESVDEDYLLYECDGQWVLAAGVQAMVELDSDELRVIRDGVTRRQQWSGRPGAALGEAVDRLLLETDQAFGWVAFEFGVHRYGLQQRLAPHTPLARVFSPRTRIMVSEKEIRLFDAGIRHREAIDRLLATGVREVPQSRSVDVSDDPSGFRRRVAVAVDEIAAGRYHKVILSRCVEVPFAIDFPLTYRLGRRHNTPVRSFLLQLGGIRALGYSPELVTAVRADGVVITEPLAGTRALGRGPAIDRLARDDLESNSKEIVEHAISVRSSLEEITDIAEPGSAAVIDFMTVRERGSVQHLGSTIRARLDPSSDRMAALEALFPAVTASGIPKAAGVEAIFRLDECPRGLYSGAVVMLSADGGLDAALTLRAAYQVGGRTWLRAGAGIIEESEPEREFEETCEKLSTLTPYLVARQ
PV pol inh – poliovirus RdRp elongation inhibitors, primary screen, biochemical, fluorescence polarization, total intensity. Genome polyprotein (Poliovirus type 1 (strain Mahoney)), P03300. poliovirus polymerase elongation; stronger effect = lower value. % elongation, % (compound at 16.7 µg/mL). 150,000 compounds, 0.66% hits; in the data active means % elongation below about 90%; further: some results filed as inactive read as strong as hits
MenB inh – M. tuberculosis MenB inhibitors, primary screen, biochemical, absorbance; MenB enzyme assay, absorbance read-out; some hits fall short of the stated cut; 100,000 compounds, 0.43% hits; 1,4-dihydroxy-2-naphthoyl-CoA synthase (Mycobacterium tuberculosis (strain ATCC 25618 / …; inhibition, %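 (about 12 µg/mL by stock and volumes)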;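 active means mean of two replicates above 30%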;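 further: 0% = no compound and 100% = wells with inactive enzyme; the first replicate is given; strong numbers were not always called active; inactives centre near -10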
Target sequence (P9WNP5 whole entry, looked up): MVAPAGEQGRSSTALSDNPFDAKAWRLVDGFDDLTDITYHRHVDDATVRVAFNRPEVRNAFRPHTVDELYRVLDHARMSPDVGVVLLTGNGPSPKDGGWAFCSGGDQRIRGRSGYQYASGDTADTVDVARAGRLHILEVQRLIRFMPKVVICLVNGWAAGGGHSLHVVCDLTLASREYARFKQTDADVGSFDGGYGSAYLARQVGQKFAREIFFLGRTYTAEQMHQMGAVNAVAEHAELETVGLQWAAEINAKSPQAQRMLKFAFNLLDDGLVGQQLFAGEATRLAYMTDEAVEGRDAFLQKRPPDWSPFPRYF
PV pol inh intensity – second read-out of PV pol inh, no call of its own (marks repeat the call); % elongation; measured here: total intensity read-out; formula for this scale not given here;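 total fluorescence in place of polarization; lower means less elongation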
* = called active by the depositor; · = not tested or not shown. An unsorted share of the library; 1.9% or so of the library scored in one or more.

Short keys: A = Mtb MbtI inh; B = PV pol inh; C = PV pol inh intensity; D = MenB inh
COc1ccccc1CNC(=O)CNC(=O)c1cccc(C)c1
  A: -2; B: 103; C: 105; D: 2

O=C(CSc1nnnn1C1CCCC1)Nc1ccc(S(=O)(=O)N2CCCCC2)cc1
  A: -7; B: 99; C: 95; D: -14

Cc1cccc(N2CCN(C(=O)Nc3ccccc3)CC2C)c1 (stereo not given)
  A: 4; B: 101; C: 100; D: -10

COc1ccc(NC(=S)N2CCN(C)CC2)cc1
  A: ·; B: 103; C: 102; D: -5

CCCNC(=O)CSc1c(-c2ccccc2)c2cc(Cl)ccc2[nH]c1=O
  A: 17; B: 102; C: 103; D: -15

N#Cc1ccccc1NC(=O)C1CCC1
  A: -10; B: 105; C: 102; D: -6

CC(C)(C)c1c[n+](-c2ccccc2)c2n1CCCS2
  A: -2; B: 100; C: 97; D: ·

OC1CCN(C(c2cccc(C(F)(F)F)c2)c2nnnn2Cc2ccc(F)cc2)CC1 (stereo not given)
  A: -5; B: 99; C: 99; D: -4

CC/C(=N\NC(=O)c1cc(-c2ccco2)nc2ccccc12)c1ccc(F)cc1
  A: 82; B: 101; C: 112; D: 4

CCCCn1c(=O)c2oc3ccccc3c2n(Cc2cccc(Cl)c2)c1=O
  A: -3; B: 105; C: 102; D: -23

(listing goes on)
Short keys: A = Mtb MbtI inh; B = PV pol inh; C = PV pol inh intensity; D = MenB inh
O=C(Nc1ccc(-n2nncc2-c2ccccc2)cc1)c1ccc(S(=O)(=O)N2CCCCC2)cc1
  A: 7; B: 102; C: 97; D: -40

O=C(Cc1csc2nc(-c3ccc(Cl)cc3)cn12)N1CCN(c2ccccc2)CC1
  A: -25; B: 102; C: 102; D: -9

CCC1CCCCN1C(=O)Cn1c(=O)n(CC2CCC(C(=O)NC3CCCC3)CC2)c(=O)c2ccccc21 (stereo not given)
  A: 3; B: 98; C: 96; D: 11

CCn1c(=O)c(=O)[nH]c2cc(C(=O)NCc3ccc(F)cc3)ccc21
  A: 46; B: 108; C: 117; D: -5

CC1CCCCC1NC(=O)CCn1c(=O)oc2ccccc21 (stereo not given)
  A: -8; B: 101; C: 104; D: -9

CC(C)CNC(=O)C1Sc2nnc(-c3ccccc3)n2NC1c1ccccc1 (stereo not given)
  A: 1; B: 100; C: 101; D: -3

OC(CON=C1c2ccccc2-c2ccccc21)CN1CCN(c2ccccn2)CC1 (stereo not given)
  A: 3; B: 103; C: 103; D: -13

CC1(C)CC(NC(=O)c2ccc(C#N)cc2)CC(C)(C)N1
  A: -2; B: 103; C: 97; D: ·

CSC(=S)n1cccc1
  A: -5; B: 101; C: 95; D: ·

COc1ccc(-c2nc(CSCC(=O)NCCN3CCN(c4cccc(Cl)c4)CC3)c(C)o2)cc1OC
  A: 19; B: 102; C: 102; D: -29

Next section:
Short keys: A = Mtb MbtI inh; B = PV pol inh; C = PV pol inh intensity; D = MenB inh
Cc1ccccc1C(=O)OC1CCCC1
  A: -4; B: 104; C: 109; D: ·

Cc1ccc(C(O)C(=O)c2cccs2)o1 (stereo not given)
  A: -3; B: 101; C: 103; D: -17

COc1ccc(/C=N/OCC(=O)N2CCN(C)CC2)cc1
  A: -2; B: 105; C: 107; D: -11

O=C(O)CNC(=O)c1ccc(N2CCCC2=O)cc1
  A: 13; B: 106; C: 92; D: -38

O=C1NC(c2ccccc2)/C(=C(\O)c2ccccc2)C1=O (stereo not given)
  A: -2; B: 104; C: 102; D: -31

CC1=Nc2ccccc2N=C(NC(=O)CN2CCN(c3ccccc3)CC2)C1c1ccccc1 (stereo not given)
  A: -7; B: 100; C: 102; D: 7

CCOC(=O)C1=C(CSc2nnnn2-c2ccccc2OCC)NC(=O)NC1c1ccccc1 (stereo not given)
  A: -8; B: 102; C: 111; D: -35

O=C(O)c1ccccc1-c1ccccc1C(=O)NCCN1CCNC1=O
  A: 3; B: 104; C: 97; D: 14

Oc1ccccc1C=Nc1cccc2ccccc12
  A: ·; B: 106; C: 111; D: -8

Cc1nc(Nc2nc3ccccc3o2)ncc1C(=O)Nc1ccccc1
  A: -2; B: 101; C: 105; D: 7

(list continues)
Short keys: A = Mtb MbtI inh; B = PV pol inh; C = PV pol inh intensity; D = MenB inh
Cc1ccc(NC(=O)c2ccc3noc(-c4ccccc4)c3c2)cc1F
  A: -16; B: 102; C: 104; D: -21

Cn1ccnc1C(=O)c1cc(SCC(=O)N2CCOCC2)nc2ccccc12
  A: 9; B: 109; C: 129; D: -17

CC1CCCCN1C(=O)CCS(=O)(=O)c1ccc2c(c1)n(C)c(=O)c(=O)n2C (stereo not given)
  A: -5; B: 102; C: 108; D: -6

O=C1C(=O)N(c2cccnc2)C(c2ccccc2)/C1=C(/O)c1ccccc1 (stereo not given)
  A: ·; B: 102; C: 100; D: -20

CC1CCN(c2nc3nonc3nc2Nc2ccc(F)cc2)CC1
  A: 5; B: 104; C: 99; D: -33

CCCN1C(=O)c2cc(C(=O)NCCc3cccc(C)c3)ccc2C1O (stereo not given)
  A: 0; B: 100; C: 103; D: 2

CCN(CC)c1ncnc2sc(C(=O)N(C)C3CCCCC3)c(C)c12
  A: -7; B: 100; C: 99; D: -20

Cc1ccc(Cn2cccc(NC(=O)c3ccncc3)c2=O)cc1
  A: -2; B: 99; C: 96; D: -5

CCOc1ccc(NC(=O)CCNC(=O)Cn2ccc3ccccc3c2=O)cc1
  A: -8; B: 103; C: 103; D: -24

O=C(NNc1nccc(C(F)(F)F)n1)Nc1cccc(Cl)c1
  A: -7; B: 103; C: 103; D: -19

Continuation.
Short keys: A = Mtb MbtI inh; B = PV pol inh; C = PV pol inh intensity; D = MenB inh
Nc1nc2c(C(=O)N3CCOCC3)nnn2c2ccccc12
  A: 99; B: 103; C: 108; D: -15

Cn1nc(CC(=O)Nc2cccc3ncccc23)c2ccccc2c1=O
  A: -41; B: 103; C: 103; D: -65

CNC(=S)N(C)/N=C1/C(=O)N(Cc2c(Cl)cccc2Cl)c2ccccc21
  A: ·; B: 98; C: 90; D: -23

CSc1nc(C)c2cc(C)ccc2n1
  A: 116; B: 99; C: 101; D: 17

O=C(CCc1n[nH]c(=O)[nH]c1=O)Nc1cccc(Br)c1
  A: 0; B: ·; C: ·; D: 3

CC1=CC(=O)C(N(C)c2ccccc2)=CC1=O
  A: 85*; B: 103; C: 107; D: ·

CC(C)C(C(=O)O)N1C(=O)c2ccc(C(=O)O)cc2C1=O (stereo not given)
  A: 0; B: 102; C: 103; D: 1

O=C(O)CSC1CC(=O)N(c2cccc(Cl)c2)C1=O (stereo not given)
  A: 3; B: 104; C: 99; D: -22

Cc1cccc(NC(=O)C(Cc2ccccc2)NS(=O)(=O)c2ccc3c(c2)c(=O)n(C)c(=O)n3C)n1 (stereo not given)
  A: -2; B: 101; C: 102; D: -21

CCOc1ccccc1NC(=O)NC1CC2CCCC(C1)N2Cc1nnnn1CCc1ccccc1 (stereo not given)
  A: -6; B: 106; C: 104; D: -43

(continued)
Short keys: A = Mtb MbtI inh; B = PV pol inh; C = PV pol inh intensity; D = MenB inh
CCOC(=O)N1CCC(NC(=O)c2ccc3c(c2)NC(=O)C2CCCN32)CC1 (stereo not given)
  A: 5; B: 102; C: 105; D: -30

CCOC(=O)c1ccc(N=c2sc(C(=O)OC)cc(=O)n2C2CC2)cc1
  A: -10; B: 103; C: 104; D: -31

CN1CCCCCC1=Nc1cccc(F)c1
  A: -1; B: 102; C: 98; D: 9

CCCCCCC1C(C#N)=C(N)SC(N)=C1C#N
  A: 34; B: 119; C: 200; D: -54

C=CCNc1ccc(F)c(F)c1N1CCCCCC1=O
  A: -12; B: 102; C: 99; D: ·

O=C1c2cccc3cccc(c23)C12OCCS2 (stereo not given)
  A: 18; B: 105; C: 99; D: 8

C[N+]1(C2CCC3CCC2C3=O)CCCC1 (stereo not given)
  A: -27; B: 101; C: 101; D: 10

Cc1ccccc1CN1CCC(CNc2nc(-c3ccccc3)no2)CC1
  A: -12; B: 103; C: 103; D: -9

Oc1nc(-c2cccc(C(F)(F)F)c2)n2ccncc12
  A: 22; B: 98; C: 90; D: -36

CC(N=C1NS(=O)(=O)c2ccccc21)C(=O)OCc1nnc(-c2ccc(Cl)cc2)o1 (stereo not given)
  A: -5; B: 100; C: 106; D: -1

Continuation.
Short keys: A = Mtb MbtI inh; B = PV pol inh; C = PV pol inh intensity; D = MenB inh
COc1ccc(Cl)cc1NC(=O)COC(=O)CCC1CCCCC1
  A: -8; B: 102; C: 99; D: ·

Cc1ccc(CN2CCCNC2=O)cc1
  A: 0; B: 103; C: 100; D: -23

CCN(CC)C(=O)Cn1cc(SCC(=O)Nc2ccccc2)c2ccccc21
  A: -22; B: 100; C: 102; D: -11

C=CCOC(=O)COc1ccc(Oc2ccccc2)cc1
  A: -14; B: 94; C: 96; D: -32

Cc1cccc(NC(=O)C2=CC(=O)C3C=CC=CC3O2)c1C (stereo not given)
  A: -2; B: 103; C: 100; D: -32

CCS(=O)(=O)c1ccc2c(c1)N1CCS(=O)(=O)N=C1O2
  A: 6; B: 103; C: 101; D: 13

O=C(NC1CCC(CC2CCC(NC(=O)c3cccnc3)CC2)CC1)c1cccnc1 (stereo not given)
  A: ·; B: 107; C: 110; D: 2

Cc1cc(F)ccc1NC(=O)Cc1ccc(S(=O)(=O)N2CCCC2)s1
  A: 5; B: 109; C: 111; D: 8

O=C(CSc1cn(Cc2ccccc2Cl)c2ccccc12)N1CCCC1
  A: 7; B: 103; C: 102; D: -11

Cc1ccc(CN)n1C
  A: 5; B: 100; C: 100; D: -8

Additional structures
Short keys: A = Mtb MbtI inh; B = PV pol inh; C = PV pol inh intensity; D = MenB inh
Cc1nn(-c2ccccc2)c2ncc(C(=O)N3CCN(C)CC3)c(Cl)c12
  A: 10; B: 101; C: 112; D: -3

CCC(=O)c1ccc(N2CCN(C(=O)c3ccco3)CC2)c(F)c1
  A: 16; B: 100; C: 104; D: -19

Cc1ccc(C)c(OCC(=O)OCn2nnc3ccccc3c2=O)c1
  A: -2; B: 102; C: 106; D: -7

Cc1nn(-c2ccccc2)c(C)c1/C=N/n1cnnc1
  A: 7; B: 103; C: 101; D: -27

O=C(C1CCN(S(=O)(=O)c2cnc[nH]2)CC1)N1CCn2c1nc1ccccc12
  A: -5; B: 102; C: 96; D: -19

Cc1onc(-c2c(Cl)cccc2Cl)c1N
  A: -12; B: 103; C: 98; D: -7

O=C(CN1C(=O)CSC1=O)NCc1ccccc1
  A: -8; B: 99; C: 105; D: -50

Cc1ccc(OCc2cc(C(N)=O)oc2C)cc1
  A: ·; B: 100; C: 105; D: -5

CC1=CCC(C(=O)O)C(C(=O)O)C1 (stereo not given)
  A: -5; B: 97; C: 103; D: 14

CN(C)CC(=O)C12CC3CC(CC(C3)C1)C2
  A: 0; B: 102; C: 103; D: 11

Carrying on:
Short keys: A = Mtb MbtI inh; B = PV pol inh; C = PV pol inh intensity; D = MenB inh
O=C(CN1C(=O)C2CC=CCC2C1=O)NC1CCCCC1 (stereo not given)
  A: -14; B: 98; C: 104; D: 13

COc1ccc(C(=O)N[C@H](C(=O)N2CCN(S(=O)(=O)c3ccc(Cl)cc3)CC2)C(C)C)cc1
  A: -11; B: 105; C: 104; D: -9

N#CC1=C(N)C(C#N)(C#N)C(c2cccs2)C2CCCC=C12 (stereo not given)
  A: ·; B: 101; C: 131; D: -12

COC(=O)C1=NNC(C(=O)c2ccco2)C1c1ccc(OC)cc1 (stereo not given)
  A: -8; B: 101; C: 106; D: -12

CCCn1c(C)cc(/C=C(\C#N)C(=O)Oc2c(C)ccc(C)c2C)c1C
  A: -11; B: 108; C: 115; D: -21

CCSc1nnc(NC(=O)/C=C/c2ccc3c(c2)OCCO3)s1
  A: -35; B: 85*; C: 91*; D: 6

N=C1/C(=C\c2cn(CCOc3ccccc3Cl)c3ccccc23)C(=O)N=C2SC=NN12
  A: -4; B: 72; C: 146; D: -15

COc1ccc(CC(=O)N2CC(C)OC(C)C2)cc1 (stereo not given)
  A: -8; B: 100; C: 105; D: -11

CCCNS(=O)(=O)c1ccc(-c2cc(C(F)(F)F)no2)s1
  A: 14; B: 103; C: 103; D: -24

C=CCN(CC=C)C(=S)Nc1ccc2c(C)cc(=O)oc2c1
  A: 15; B: 102; C: 100; D: -28

Carrying on.
Short keys: A = Mtb MbtI inh; B = PV pol inh; C = PV pol inh intensity; D = MenB inh
Cc1nnc2sc(-c3cc4ccccc4o3)nn12
  A: -20; B: 102; C: 104; D: -9

Cc1c(C)n(C(=O)CSc2ncccn2)c2ccccc12
  A: -8; B: 103; C: 108; D: ·

c1cncc(CNc2c3c(nc4ccccc24)CCC3)c1
  A: ·; B: 98; C: 101; D: 3

C=CCS(=O)(=O)c1nc2ccccc2s1
  A: 8; B: 98; C: 100; D: 4

CC(=O)Nc1ccc(S(=O)(=O)NCc2cc(C)n(-c3ccc(F)cc3)c2C)cc1
  A: 5; B: 103; C: 103; D: 14

CC1CC(C)CN(C(=O)c2cc3cccnc3n(Cc3ccccc3)c2=O)C1 (stereo not given)
  A: 6; B: 111; C: 115; D: -30

COc1ccc(/C=C/C(=O)Nc2noc3ccccc23)cc1OC
  A: 11; B: 106; C: 108; D: -69

OC(CNCc1ccc2c(c1)OCO2)COc1ccc(-c2csnn2)cc1 (stereo not given)
  A: 0; B: 109; C: 105; D: -14
